KCNQ2 enhance: potentiators of rat KCNQ2 potassium channel; CHO-K1 KCNQ2, FluxOR thallium flux fluorescence; hits give high values; Potassium voltage-gated channel subfamily KQT member 2 (Rattus norvegicus), O88943; B-score at 10 µM; 0.54% of 310,000 active; AID 2239, 2010;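 active means fluorescence ratio B-score at least 3 SD of library B-scores, with initial fluorescence B-score within 3 SD, cut at about 5.3 in these data; same plate scores as AID 2156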;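 further: B-score of peak minus minimum over baseline fluorescence ratio after K+ and Tl+ stimulus; positive B-score means potentiation of KCNQ2 with more thallium influx and brighter signal; only the inactives scoring about 0 or higher are listed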
Target sequence (O88943 whole entry, looked up): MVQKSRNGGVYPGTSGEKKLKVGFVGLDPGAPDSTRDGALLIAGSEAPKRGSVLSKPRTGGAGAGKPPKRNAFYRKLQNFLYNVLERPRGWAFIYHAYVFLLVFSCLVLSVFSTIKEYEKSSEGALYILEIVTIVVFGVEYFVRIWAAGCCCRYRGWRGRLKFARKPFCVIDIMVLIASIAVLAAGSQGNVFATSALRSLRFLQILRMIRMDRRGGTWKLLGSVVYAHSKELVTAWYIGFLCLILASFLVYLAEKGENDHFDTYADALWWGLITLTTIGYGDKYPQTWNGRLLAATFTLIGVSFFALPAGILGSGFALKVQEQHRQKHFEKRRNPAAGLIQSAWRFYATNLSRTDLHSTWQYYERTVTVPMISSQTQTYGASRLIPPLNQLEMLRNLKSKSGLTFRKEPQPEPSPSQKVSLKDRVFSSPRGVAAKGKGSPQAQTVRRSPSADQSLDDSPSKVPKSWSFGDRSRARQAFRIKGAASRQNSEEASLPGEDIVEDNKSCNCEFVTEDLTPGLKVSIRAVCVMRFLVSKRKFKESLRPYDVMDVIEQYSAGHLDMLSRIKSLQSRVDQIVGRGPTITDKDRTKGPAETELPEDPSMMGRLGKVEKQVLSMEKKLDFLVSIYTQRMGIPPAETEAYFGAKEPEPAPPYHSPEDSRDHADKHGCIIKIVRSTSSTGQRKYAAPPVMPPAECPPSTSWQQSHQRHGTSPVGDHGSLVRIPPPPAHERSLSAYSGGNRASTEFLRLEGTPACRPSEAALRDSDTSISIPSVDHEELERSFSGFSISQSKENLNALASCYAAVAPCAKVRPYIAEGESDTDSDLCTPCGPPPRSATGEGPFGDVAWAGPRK
KCNQ2 enhance baseline: further read-out of KCNQ2 enhance, marked with its call; B-score; compound at 10 µM; measured here: initial fluorescence intensity artifact check;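 brightness before thallium and not channel activity; 0 = typical well and far values either way flag optical interference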
* = called active by the depositor.

SMILES	KCNQ2 enhance	KCNQ2 enhance baseline
CCO[C@H]1OC(C(=O)NCc2ccccc2)=C[C@@H](C)[C@@H]1CCCO	0.42	1.1
Cc1ccc(S(=O)(=O)NCCC(=O)Nc2ncccc2O)cc1C	0.03	1.05
CCOc1ccc(NC(=S)Nc2cccc3cnccc23)cc1	0.12	0.97
COC(=O)CSc1nnc(SCc2ccccc2)s1	2.17	0.49
N#C/C(=C\c1c[nH]c2ccccc12)C(=O)Nc1ncc(Cc2ccc(Cl)cc2Cl)s1	0.19	-0.01
CC(=O)n1cc(/C=N/NC(=O)c2ccccc2Cl)c2ccccc21	0.38	0.02
O=C(NCC1CCCO1)C1CCN(C2CCN(Cc3ccco3)CC2)CC1 (stereo not given)	0.04	0.33
COn1c(-c2ccccc2)nc2c1CCc1c-2no[n+]1[O-]	0.59	-1.3
Cc1ccc(C(=O)N2CCN(S(=O)(=O)c3ccc(C)cc3)CC2)cc1	1.59	-0.64
CCCCCCOc1ccc(OC(=O)c2ccncc2)cc1	1.53	0.53
C=CCN1C(=O)c2ccc(C(=O)N3CCN(S(=O)(=O)c4cccc(Cl)c4)CC3)cc2C1=O	0.2	-2.83
CCOC(=O)C1=C(C)Nc2ncnn2C1c1cc(OC)ccc1OC (stereo not given)	0.03	0.59
O=C(CNC(=O)c1ccccc1F)N/N=C/c1ccc2c(c1)OCO2	0.48	-0.89
CCOc1ccc(CCNC(=O)Cc2ccc(NC(=O)C3=C(C)OCCS3)cc2)cc1	0.83	1.08
CCOc1cc(/C=N/O)ccc1OS(=O)(=O)c1ccc(C)cc1	0.06	-0.24
CCCc1ccc(C2=Nn3c(nnc3C(C)C)SC2)cc1	0.06	-0.01
O=C(Nc1nnc(-c2ccccc2Cl)o1)c1ccco1	1.63	1.42
Cc1occc1-c1nnc(SCC(=O)Nc2c(F)cccc2F)n1C	0.31	1.15
COc1ccc(CNC(=O)C(=O)NCC2CCCO2)cc1 (stereo not given)	0.06	-0.73
c1ccc(Oc2cccc3cccnc23)nc1	1.15	-0.24
Cc1cn(C2OC(CC(=O)Oc3ccccc3)C(O)C2O)c(=O)[nH]c1=O (stereo not given)	0.54	0.53
COc1ccc(C(=O)N2N=C(c3ccc(NS(C)(=O)=O)cc3)CC2c2cccs2)cc1 (stereo not given)	0.01	-0.19
O=C(Oc1c(Br)cc(Br)c2cccnc12)N1CCCCC1	2.58	-0.22
CCN(CC(=O)Nc1c(F)cccc1F)C(=O)c1ccc(COc2ccccc2)o1	0.46	-0.25
COc1ccc(C)cc1N(CC(=O)Nc1cccc(N(C)S(C)(=O)=O)c1)S(C)(=O)=O	1.51	-0.23
O=C(Nc1ccccc1)C1CCCN1/C=C/C(=O)C(F)(F)F (stereo not given)	0.11	0.63
Cc1nc2scc(-c3ccc(Cl)cc3)c2c(=O)n1N	0.31	1.43
c1cncc(CSc2ccc(-c3cccs3)nn2)c1	0.94	1.6
O=C(CCCN1C(=O)/C(=C/c2cccc(Br)c2)SC1=S)Nc1cccnc1	0.64	-0.17
Cc1ccccc1C(=O)NC(=S)Nc1ncccn1	0.78	1.71
COc1ccc(CNC(=O)CN2CCN(S(=O)(=O)c3cccs3)CC2)cc1OC	1.01	0.04
O=c1cc(COn2nnc3ccc(C(F)(F)F)cc32)nc2sccn12	0.14	0.98
Cc1ccc(C(N)=S)c(C)c1	0.33	-0.21
Cc1cccc(N2CCN(C(=O)Cc3c(C(=O)O)[nH]c4ccc(Cl)cc34)CC2)c1C	7*	1.8*
O=C(NCCO)c1ccc2nc(Cc3cccc(Cl)c3)oc2c1	2.06	0.02
Cc1nc(CCNC(=O)COc2ccccc2)cs1	1.36	-0.01
O=C(NCCC(=O)N1CCN(c2ccccc2O)CC1)c1ccc(Br)cc1	1.48	-2.14
O=C(N/N=C/c1ccc2c(c1)OCO2)c1cc(-c2ccccc2)nc2ccccc12	0.26	0.74
CN(CC(=O)Nc1ccc(Cl)cc1)C(=O)CCc1c[nH]c2ccccc12	2.7	0.35
CCOC(=O)c1cn(Cc2c(C)c(C)c(C)c(C)c2C)nn1	0.14	0.57
CCOc1cc(/C=N/NC(=O)c2ccncc2)cc(Cl)c1OS(C)(=O)=O	0.05	-0.17
Cc1ccc(NC(=O)c2ccoc2C)cc1C	3.03	2.89
Cc1[nH]n(C(N)=S)c(=O)c1N=Nc1ccc(Br)cc1	0.03	1.71
O=C(CCC(=O)c1cccs1)NCc1ccncc1	0.44	-0.62
CCCOc1ccc(OCCSc2ncccn2)cc1	1.11	-0.05
COc1ccc2cc(Br)ccc2c1CC(=O)NCC1CCCO1 (stereo not given)	0.05	-0.07
O=[N+]([O-])c1cccc(S(=O)(=O)NCCCN2CCOCC2)c1	0.27	-0.47
O=C(NCCS(=O)(=O)N1CCc2ccccc2C1)c1ccccc1	1.1	-1.13
Cc1ccc(C)c(CN2CCC(CNC(=O)Nc3ccc(F)c(Cl)c3)CC2)c1	0.87	-0.96
CN(Cc1ccccc1)C(=O)COC(=O)c1cc(Cl)nc(Cl)c1	0.85	-0.03
COC(=O)c1c(C)c(C)nc(N)c1C#N	1.97	-1.88
CC(Oc1ccccc1F)C(=O)NN (stereo not given)	1.74	0.2
Cn1c(=O)n(C)c2cc(S(=O)(=O)Nc3ccc(F)cc3)ccc21	1.8	-0.23
Cc1ccc(-n2c3c(c(=O)[nH]c2=O)C(NS(=O)(=O)c2ccc(C)cc2)(C(F)(F)F)C(=O)N3)cc1 (stereo not given)	0.23	4.48
COc1ccc(NC(=O)c2cccc(NS(=O)(=O)c3ccccc3)c2)cc1	0.61	0.55
Cc1cc(C)n2ncc(/C(N)=N/OC(=O)c3ccccc3F)c2n1	1	0.46
Cc1nnc(NC(=O)CSc2nc(C3CCCCC3)nc3ccccc23)s1	0.32	0.68
Cc1ccc(-n2nc3ccc(N)cc3n2)cc1Cl	0.61	1.4
Cc1cc(C)c2c(=O)[nH]c(SCC(=O)c3ccc(C)c(C)c3)nc2n1	1.31	-0.24
COc1ccc2[nH]cc(CCNC(=O)c3ccccc3Cl)c2c1	2	-0.05

Taken from above.
In KCNQ2 enhance baseline, Cc1ccc(C)c(CN2CCC(CNC(=O)Nc3ccc(F)c(Cl)c3)CC2)c1 is entered as -0.96
In KCNQ2 enhance, COC(=O)c1c(C)c(C)nc(N)c1C#N is entered as 1.97
In KCNQ2 enhance baseline, COc1ccc2[nH]cc(CCNC(=O)c3ccccc3Cl)c2c1 is entered as -0.05
In KCNQ2 enhance baseline, CCOc1cc(/C=N/NC(=O)c2ccncc2)cc(Cl)c1OS(C)(=O)=O is entered as -0.17

Single records, as listed above. Order of values: KCNQ2 enhance	KCNQ2 enhance baseline
`O=C(CCC(=O)c1cccs1)NCc1ccncc1` reads 0.44	-0.62
`CC(Oc1ccccc1F)C(=O)NN` (stereo not given) reads 1.74	0.2
`COc1ccc2[nH]cc(CCNC(=O)c3ccccc3Cl)c2c1` reads 2	-0.05
`Cc1cc(C)n2ncc(/C(N)=N/OC(=O)c3ccccc3F)c2n1` reads 1	0.46
`Cc1ccc(NC(=O)c2ccoc2C)cc1C` reads 3.03	2.89

Further structures follow.
SMILES	KCNQ2 enhance	KCNQ2 enhance baseline
Cc1ccc(NC(=O)C2CCCO2)c(Br)c1 (stereo not given)	0.13	0.89
Cc1ccccc1C(=O)NCC(=O)OCCOc1ccc(C(C)C)c(C)c1	4.29	1.38
C=CCC1c2cccc(C(=O)O)c2C(=O)N1c1ccc(F)cc1 (stereo not given)	0.03	0.29
COc1ccc(C(=O)CCC(=O)O)cc1	0.9	0.5
Cc1csc(NC(=O)c2ccc(Cl)nc2)n1	1.58	0.3
CCCCCCCCCCCC(=O)N1CC(=O)NC(=O)C1	1.43	0.94
Cc1cccc(OCCC(=O)Nc2ccccc2C(N)=O)c1	1.2	1
Cc1ccccc1OCC(O)Cn1c(NCc2ccco2)nc2c1c(=O)n(C)c(=O)n2C (stereo not given)	0.09	-1.09
CCSc1ccccc1C(=O)Nc1nncs1	0.59	0.01
C=CCNC(=O)CSc1nc2cc(C(=O)OCC)ccc2n1CC	1	-1.09
COc1ccc(NC(=O)c2c(Nc3ccccc3)sc(C(=O)c3ccc(F)cc3)c2N)cc1	1.54	0.51
CN(C)/C=N/C(=S)Nc1cc(Cl)cc(Cl)c1	1.18	-0.69
O=C(O)c1ccccc1CSc1ccccn1	0.16	-2.2
NC(=O)C1(N2CCCCC2)CCN(C(=O)c2ccc(C#Cc3ccccc3)o2)CC1	0.51	0.71
O=C(OCC(=O)N1CCCC1=O)c1cc(Cl)ccc1O	2.4	-1.35
O=C(NCc1ccncc1)C(=O)NC1CC1	0.07	2.02
O=C(C1Cc2ccccc2O1)N1CCCCC1 (stereo not given)	0.07	0.79
Oc1ccc(/C=N/Nc2ccnc3cc(Cl)ccc23)cc1O	0.47	-1.52
CCN(CC)C(=O)CN1C(=O)C2(NC(=O)c3ccccc3N2)c2ccccc21 (stereo not given)	0.33	1.35
Cc1ccc(NC(=O)C2CC(=O)NC(N3CCc4ccccc43)=N2)cc1 (stereo not given)	0.2	-0.24
COc1ccc(NC2=C(Cl)C(=O)N(CCc3ccccc3)C2=O)c(OC)c1	0.41	-0.42
Nc1nc2n(n1)C(=O)CC(c1ccc(Cl)cc1)N2 (stereo not given)	0.39	-2
CC(C)(C)c1cc(NCCCn2ccnc2)n2ncc(-c3ccccc3)c2n1	0.81	2.4
CCn1nccc1C(=O)Nc1ccc(C(=O)OC(C)C)cc1	1.8	-0.1
Cc1ccccc1NC(=O)c1ccc(Cn2cc([N+](=O)[O-])cn2)o1	0.72	-1.69
Cc1cc(C(F)(F)F)n(-c2nc(C(=O)O)cs2)n1	1	-1.32
Cc1cccc2sc(NC(=O)CN3C(=O)c4ccccc4C3=O)nc12	0.28	2.29
CCOc1ccccc1N1CCN(C(=S)NCc2ccccc2)CC1	1.98	-1.91
CCC(=O)Nc1nc2ccccc2n1Cc1ccc(Cl)cc1	0.48	-0.88
COC(=O)c1sccc1-n1cccc1C(=O)C(=O)N1CCOCC1	1.37	0.61
Cc1ccc(-c2nc3c(cnn3-c3ccccc3)c(=O)o2)cc1	0.14	-0.51
O=C(Nc1ccncc1)C1CCN(S(=O)(=O)c2cccs2)CC1	0.02	0.45
O=C(CCc1nnc(-c2ccsc2)o1)N1CCCCC1CCn1ccnc1 (stereo not given)	1.26	-1.24
CCCn1nnc(NC(=O)c2ccc3c(c2)OCO3)n1	2.32	0.05
CCC(C)N(C(=O)CSc1nc(-c2ccccc2)cs1)C1CCS(=O)(=O)C1 (stereo not given)	0.02	0.39
COc1ccc(CCCC(=O)N/N=C/c2ccc(C)cc2)cc1	1.15	-1.24
CSc1nccc(Oc2cccc(C#N)c2)n1	0.43	0.22
Cc1ccc(-c2cc(C(=O)NCCCN3CCOCC3)no2)cc1	0.07	0.92
O=C(c1cn(-c2ccccc2)nc1-c1cccs1)N1CCOCC1	0.09	-0.24
CC1(c2ccc(Cl)cc2)NC(=O)N(CN2CCOCC2)C1=O (stereo not given)	0.07	0.18

Among those listed so far, these have a nitro group on carbon:
SMILES	KCNQ2 enhance	KCNQ2 enhance baseline
O=[N+]([O-])c1cccc(S(=O)(=O)NCCCN2CCOCC2)c1	0.27	-0.47
Cc1ccccc1NC(=O)c1ccc(Cn2cc([N+](=O)[O-])cn2)o1	0.72	-1.69

Additional entries
SMILES	KCNQ2 enhance	KCNQ2 enhance baseline
O=C(O)CCCCCN1C(=O)c2ccc(C(=O)O)cc2C1=O	1.23	-1.77
O=C(O)CC(NC(=O)CCC1CCCCC1)c1cc([N+](=O)[O-])ccc1Cl (stereo not given)	0.29	0.36
Cc1cccc(N2CCN(C(=O)CN3CCOc4ccccc43)CC2C)c1 (stereo not given)	0.02	2.58
Cc1cc(C)c(OCCCCN2CCNCC2)c(C)c1	1.55	-1.87
O=C(NCCCN1CCCC1=O)c1ccc(NS(=O)(=O)c2ccccc2)cc1	0.11	0.13
COc1cccc(CN2CC(C(=O)NCc3ccc(Cl)s3)CCC2=O)c1 (stereo not given)	1.41	-0.23
CCN(c1ccccc1)S(=O)(=O)c1ccc(C(=O)Nc2nccs2)cc1	0.71	0.43
O=C(CNC(=O)c1ccccc1F)N/N=C\C=C\c1ccccc1	0.54	0.58
C=CCn1c(SCc2cccc(C#N)c2)nnc1-c1ccccc1O	0.25	-0.21
O=C(CSc1ncn[nH]1)NC12CC3CC(CC(C3)C1)C2	0.31	-0.99
CCn1c(N2CCN(C(=O)Nc3ccc(F)cc3)CC2)nc2ccccc21	1.49	-0.13
O=C(NCc1cccc(Cl)c1)c1cccc(C(F)(F)F)c1	0.48	0.35
Cc1occc1C(=O)Nc1nnc(C2CCCCC2)s1	0.51	0.48
CC1=CC(C)(C)n2c(O)c(N=N)c3cc(C)cc1c32	3.7	-2.4
CCOC(=O)c1ccc(N2C(=O)C(CC(N)=O)N(CCc3ccc(OC)c(OC)c3)C2=S)cc1 (stereo not given)	0.88	0
Cc1c(C(=O)N(C)C)sc2nc(-c3ccccn3)[nH]c(=O)c12	1.27	-0.17
NC(=O)c1nsc(C(=O)N(c2ccc3c(c2)OCCO3)C(C(=O)NCC2CCCO2)c2ccc(F)cc2)c1N (stereo not given)	1.34	0.39
O=C(CCc1nc(-c2ccccc2Cl)no1)NC1CCCCC1	0.36	0.28
CCN1C(=O)[C@H]2[C@@H](c3ccc(C)cc3)N3C(=O)N(c4cccc(Cl)c4)C(=O)[C@@]3(Cc3ccccc3)[C@H]2C1=O	1.23	0.11
O=C(c1ccc(S(=O)(=O)Nc2cccc(C(F)(F)F)c2)cc1)N1CCC1	0.45	1.28
CN(C)S(=O)(=O)c1cccc(NC(=O)COC(=O)CCc2nc3ccccc3s2)c1	1.78	0.97
Cc1cc(C(=O)CSc2nnnn2C)c(C)n1-c1cccc(F)c1	0.23	1.31

Screening results (PubChem BioAssay)

An excerpt; the hit share may differ from the screen's.
